Screening results: PubChem, several laboratories
MLL AF4-AF9 inh = blocks AF4 peptide binding to human AF9 | AlphaScreen, biotin-AF4 peptide binding to FLAG-AF9 | inhibition, % at 10 µM | 350,000 compounds, 0.47% hits | AID 651704;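 active = every replicate reaching a set inhibition limit, whatever the replicate mean, cut at about 25% in these data; inconclusive = mean inhibition reaches that limit but some replicates miss it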;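 also: 0% = plate neutral control median and 100% = total signal loss; the record names both 10 and 1 µM as test concentration; the first replicate is given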
FGF22 binding = FGF22 (human) thermal shift binding; Q9HCT0; recombinant FGF22 thermal shift, SYPRO orange fluorescence; percent of sucrose octasulfate shift, DMSO zero; calls only at 9.99 µM; 340,000 compounds, 1.5% hits;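 active = melting point raised past a set limit in the mean and every replicate; inconclusive = no clear call; three in four hits are not shown here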
Target sequence (Q9HCT0 whole entry, looked up): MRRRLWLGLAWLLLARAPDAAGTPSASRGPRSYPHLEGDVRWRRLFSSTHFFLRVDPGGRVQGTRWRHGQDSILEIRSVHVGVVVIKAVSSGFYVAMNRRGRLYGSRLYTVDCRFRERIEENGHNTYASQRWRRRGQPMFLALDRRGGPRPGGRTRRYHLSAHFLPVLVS
HNF4A DNA FP = change in binding of human HNF4 alpha to DNA; P41235; HNF4a-FITC DNA binding, fluorescence polarization, 1 h; activity change, % at 10 µM; 360,000 compounds, 0.3% hits; in the data active = activity change above about 30%, passing the limit was not always enough;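 also: controls were the assay level and a saturating level of protein; the project sought stronger binding though the title names inhibitors; some compounds called inactive have numbers as strong as hits; positive values seem to mean higher polarization but the record does not say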
Target sequence (P41235 whole entry, looked up): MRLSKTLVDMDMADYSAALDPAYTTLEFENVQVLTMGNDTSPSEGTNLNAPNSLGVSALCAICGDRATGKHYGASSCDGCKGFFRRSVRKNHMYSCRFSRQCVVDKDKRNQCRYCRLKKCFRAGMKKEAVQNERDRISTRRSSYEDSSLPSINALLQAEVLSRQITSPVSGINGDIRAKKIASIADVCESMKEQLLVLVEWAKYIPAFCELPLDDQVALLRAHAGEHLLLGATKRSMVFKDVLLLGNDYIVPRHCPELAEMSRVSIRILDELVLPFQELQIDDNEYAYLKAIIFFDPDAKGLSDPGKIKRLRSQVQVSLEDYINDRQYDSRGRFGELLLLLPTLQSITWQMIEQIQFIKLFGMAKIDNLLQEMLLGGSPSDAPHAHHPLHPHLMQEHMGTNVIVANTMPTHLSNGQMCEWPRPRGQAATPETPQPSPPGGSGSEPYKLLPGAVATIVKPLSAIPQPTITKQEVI
E coli growth = blocks Escherichia coli growth; OD600 absorbance (concentration not given with the values); OD600, 23 h; stronger effect = lower value; 330,000 compounds, 0.21% hits;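 active = OD600 absorbance below the run mean of sample wells minus 3.6 SD, in any replicate, cut at about 0.56 in these data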;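 also: stock transfer was 300 nL into about 60 µL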
RanGTP-Imp inh = inhibitors of RanGTP-importin-beta interaction, primary screen, biochemical, FRET, CFP-Ran, YFP-importin-beta, homogeneous; cell-free CFP-Ran/YFP-importin-beta FRET ratio; inhibition, % (test concentration not listed); 300,000 compounds, 1.1% hits;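 active = most replicates above 15%; inconclusive = exactly half above 15%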;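 also: 0% = DMSO wells and 100% = Ran loaded with GDP instead of GTP; wells of about 40 µL received 100 nL stock; the first replicate is given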
Vif A3G = inhibitors of Vif binding to APOBEC3G peptide, primary screen, biochemical, TR-FRET, GST-Vif 1-94, biotin-A3G peptide, dose response retest (AID 1117319); inhibition, %; hits with a dose series show IC50 in µM; TR-FRET GST-Vif / biotin-A3G peptide binding; higher % means a stronger effect; test concentration not given here; strong numbers were not always called active; 260,000 compounds, 0.57% hits;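 active = above the screen mean plus three standard deviations and confirmed in dose response; inconclusive = results disagree or hit not tested in dose response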;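 also: Vif residues 1-94 fused to GST binding biotinylated APOBEC3G peptide 110-148; 0% = full assay without inhibitor and 100% = GST in place of GST-Vif; retest series ran down from 100 µM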
UCH37 inh = inhibitors of human deubiquitinating enzyme UCH37; inhibition, % (no concentration beside the values); 330,000 compounds, 0.33% hits; purified proteasome/UCH37, Ub-AMC cleavage fluorescence; Q9Y5K5;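 active = mean of two replicates above 20%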;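 also: 0% = compound-free wells with enzyme and 100% = wells lacking proteasome; stock transfer was 100 nL into about 20 µL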
Target sequence (Q9Y5K5 whole entry, looked up): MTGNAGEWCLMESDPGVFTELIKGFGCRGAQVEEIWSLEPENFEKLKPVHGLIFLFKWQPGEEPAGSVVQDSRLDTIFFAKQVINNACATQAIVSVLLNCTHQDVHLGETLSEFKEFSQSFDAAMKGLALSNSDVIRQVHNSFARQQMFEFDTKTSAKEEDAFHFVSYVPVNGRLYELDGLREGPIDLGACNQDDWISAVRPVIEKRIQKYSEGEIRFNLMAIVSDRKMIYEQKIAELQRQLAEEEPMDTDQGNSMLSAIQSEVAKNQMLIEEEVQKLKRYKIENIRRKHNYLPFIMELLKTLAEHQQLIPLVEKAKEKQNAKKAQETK
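Schedule: 30 min plus 25 min, room temperature / Material: human UCH37 within purified proteasomes / Technique: AMC fluorescence intensity at 355/460 nm / Buffer or medium: pH 7.4 Tris-HCl (50 mM) with ovalbumin, ATP-MgCl2, DTT / Controls: wells without proteasome as full block, compound-free enzyme plus substrate as uninhibited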
The depositor's hits bear a star; i = inactive; u = inconclusive; x = not tested or not shown; & = joins results of further samples.

SMILES	MLL AF4-AF9 inh	FGF22 binding	HNF4A DNA FP	E coli growth	RanGTP-Imp inh	Vif A3G	UCH37 inh
COc1ccc(NC(=O)CC2CC3CCC2C3)cn1 (stereo not given)	-1.1	i	-1.1	0.66	2.8	7%	0.8
O=[N+]([O-])/C(C(Cl)=C(Cl)Cl)=C(/NC1CC1)Sc1ccccc1	0.7	i	-0.2	0.67	-3.2	67%	2.6
CCOc1ccc(Nc2n[nH]c(=S)s2)cc1	-7.3	i	4.8	0.64	-2.4	-1%	2.8
O=C(C[C@H]1C(=O)N(CCc2ccccc2)C[C@@H]1Cc1ccccc1)Nc1ccc(Br)cc1	-2.5	i	2.1	x	x	-8%	x
CCOC(=O)c1cn(Cc2cccc(C)c2)nn1	9.0	i	4.1	0.67	-0.2	-6%	5.5
Cc1cccc(OCC(=O)Nc2nnn(C)n2)c1C	x	x	-2.5	0.67	-4.0	2%	0.3
COc1ccc(N(C(=O)C2CCCCC2)C2C=CS(=O)(=O)C2)c(OC)c1 (stereo not given)	0.9	i	-0.4	0.72	-0.3	2%	0.6
Clc1ccc(OCCn2cnc3ccccc32)c(Cl)c1	x	x	0.8	0.59	1.3	3%	1.8
CN(C)S(=O)(=O)c1cccc(-n2sc3ccccc3c2=O)c1	x	i	4.7	0.69	x	u	3.5
COC(=O)C(C)Oc1ccc2c3c(c(=O)oc2c1)CCCCC3 (stereo not given)	x	x	-2.6	0.7	4.4	0%	-357
Cc1[nH]c2ccccc2c1C(=O)C(=O)N1CC=C(c2ccccc2)CC1	x	x	3.5	0.66	2.3	24%	8.6
NC(=S)N/N=C/c1cccc(/C=N/NC(N)=S)c1	-2.7	i	-0.2	x	5.1	-1%	x

Single entries from the list:
COc1ccc(NC(=O)CC2CC3CCC2C3)cn1 (stereo not given) – Vif A3G: 7%
COC(=O)C(C)Oc1ccc2c3c(c(=O)oc2c1)CCCCC3 (stereo not given) – Vif A3G: 0%
CN(C)S(=O)(=O)c1cccc(-n2sc3ccccc3c2=O)c1 – HNF4A DNA FP: 4.7

(more compounds)
SMILES	MLL AF4-AF9 inh	FGF22 binding	HNF4A DNA FP	E coli growth	RanGTP-Imp inh	Vif A3G	UCH37 inh
Cc1cc(CN2CCC(N3CCC(C(=O)NC4CC4)CC3)CC2)cc(C)c1O	0.0	x	-1.0	0.72	0.1	-9%	0.7
NS(=O)(=O)c1ccc(NC(=O)c2cc(Cl)sc2Cl)cc1	-4.2	i	3.8	0.63	0.5	6%	2.0
COc1ccc(C(=O)N2CCN(c3cccc(Cl)c3)CC2)c(OC)c1	x	x	-0.9	0.79	4.6	-2%	2.7
CC1(C(=O)NS(=O)(=O)c2ccc(C#N)cc2)CCN1C(=O)CC1CC1 (stereo not given)	-14	i	-0.3	x	x	x	x
NC(=O)c1cc2ccncc2c2ccccc12	-4.6	i	1.7	x	8.7	-11%	x
CCOc1ccc(NC(=O)C(C)NS(=O)(=O)c2ccc(NC(C)=O)cc2)cc1 (stereo not given)	1.8	i	-3.8	0.7	-0.6	18%	1.6
O=C(NP(=O)(N1CCOCC1)N1CCOCC1)C1=C(N2CCOCC2)/C(=C\c2ccccc2)CC1	-1.8	x	4.7	0.64	4.1	0%	-406
COc1cccc(C(=O)/C=C2\Sc3ccccc3N2C)c1	-5.6	i	-0.4	0.66	1.6	21%	-46
O=C(CNS(=O)(=O)c1ccccc1)NCc1ccco1	-1.6	i	-3.3	0.67	-4.7	x	3.9
CCOc1ccc(/C=C2\SC(=S)N(CC(=O)NCCCN3CCOCC3)C2=O)cc1	8.6	i	1.1	0.66	0.7	8%	4.4
C/C(CC(=O)Nc1cccnc1)=N\NC(=O)C(=O)Nc1cccc(C)c1	-3.4	i	0.8	x	0.5	1%	x
Cc1ccnc(SCc2ccc([N+](=O)[O-])cc2)n1	2.5	i	2.1	0.66	-2.3	-4%	0.7
O=C(Nc1cccc2c1C(=O)NC2=O)c1cccnc1Cl	-1.3	i	1.4	0.68	3.0	-35%	-42
CC1=C(C(=O)OC(C)C)C(C)NC(=O)N1 (stereo not given)	x	x	6.5	0.72	1.1	-7%	0.7
CCCC(=O)C1=C(N(C)c2ccccc2)CC(C)(C)C(C(=O)OC)C1=O (stereo not given)	x	x	5.5	0.79	1.5	3%	7.0
Cc1ccc(S(=O)(=O)N2CCOCC2)cc1NC(=O)COC(=O)CNC(=O)c1ccc(C(C)(C)C)cc1	2.4	i	3.1	0.67	2.4	x	1.2
Cc1c([N+](=O)[O-])c(C(=O)NC2CCCCC2)nn1C	-1.1	i	-0.8	0.66	2.7	x	-1.6
Cc1ccc2c(c1)cc1c(=O)n(CC(=O)NCCN3CCCC3)nc(C)n12	x	x	-0.8	0.7	6.0	x	-3.8
CCn1c(SCC(=O)Nc2ccc(C(C)=O)cc2)nc2c([nH]c3ccccc32)c1=O	-5.7	i	3.6	0.69	x	-3%	7.4
Cc1cccc(CSc2ccc(-c3cccs3)nn2)c1	x	x	-3.5	0.64	1.7	x	4.6
COC(=O)c1cn(C)c2ccc(S(=O)(=O)N3CCOCC3)cc2c1=O	-0.8	i	1.6	0.66	-1.6	10%	1.3
Cc1ccc(NC(=O)Cc2nnc(SCC(=O)NC3CCCC3)n2C)c(C)c1	-1.6	i	1.4	0.69	2.7	x	2.4
COc1ccc(CNC(=O)COC(=O)C2CCC(C(C)(C)C)CC2)cc1 (stereo not given)	-15	i	0.8	0.7	-3.9	x	4.0
Cc1cc(NC(=O)Cn2nnc(-c3ccccc3N)n2)no1	x	x	-1.3	0.65	-0.9	x	-0.7
O=S(=O)(c1ccc(Oc2ncnc3scc(-c4ccccc4)c23)cc1)N1CCOCC1	x	x	-2.0	0.77	-1.9	-1%	3.7
CCOc1ccc(C(=O)N/N=C/c2ccc(SC)cc2)cc1	3.5	i	0.2	x	2.9	x	x
COc1ccc(CN2CCSCC2)cc1O	x	x	-2.4	0.72	-3.4	7%	1.1
O=c1cc(C(F)(F)F)nc(SCc2cccc3ccccc23)[nH]1	-2.9	i	1.0	0.68	-2.5	28%	5.4
O=C(CCN1CCC(c2cccs2)=N1)c1cccs1	-3.1	i	3.7	0.61	-3.1	8%	5.1
Cc1ccc(S(=O)(=O)N2CCOCC2)cc1C(=O)OCC(=O)c1ccc[nH]1	1.8	i	0.7	0.65	x	0%	-1.1
Cc1ccc(C(=O)Nc2ccn(C)n2)cc1	-0.7	i	0.8	0.65	x	-2%	2.7
CC(=O)c1ccc(NC(=O)c2ccc(C)c(S(=O)(=O)N3CCOCC3)c2)cc1	-1.9	i	0.7	0.65	-1.1	4%	4.1
Cc1onc(-c2c(Cl)cccc2Cl)c1CO/N=C(\C#N)c1c(Cl)cccc1Cl	5.5	i	1.7	x	3.2	17%	x
COC(=O)/C=c1/sc2n(c1=O)CCN=2	x	x	1.1	x	2.9	-6%	x
COc1ccc(CN(CC(=O)NC2CCCC2)C(=O)CCC(=O)Nc2nccs2)cc1	-1.1	i	1.2	0.66	3.0	x	-0.2
CCOC(=O)CSc1nc2ccsc2c(=O)[nH]1	0.7	i	-1.5	0.69	1.1	-2%	3.1
COc1ccc2nc3oc(C(=O)N4CCCCC4)cc3cc2c1	x	x	3.6	0.67	1.5	65%	-168
C[C@H](CO)N1C[C@H](C)[C@@H](CN(C)S(=O)(=O)c2cccc(F)c2)OCc2cnnn2CCCC1=O	-1.9&0.9	i	0.1	x	x	-2%	x
Fc1ccc(Nc2nc(NCc3ccco3)c3ccccc3n2)cc1	x	i	2.6	0.36*	-1.6	-7%	-97
CC1CCc2c(sc(NC(=O)CSc3nc(N)cc(=O)[nH]3)c2C(N)=O)C1 (stereo not given)	5.3	i	3.2	0.69	x	-3%	6.9
C=C(C)Cc1c(C)c(C#N)c2nc3ccccc3n2c1N1CCCCC1	x	x	7.1	0.7	29*	-2%	-206
CC(C)CCC(=O)Nc1cc(S(=O)(=O)N2CCOCC2)ccc1N1CCCC1	-4.6	i	-1.7	x	x	-2%	x
CC(=O)c1cc(CN2CCN(CC=C(C)C)C(CCO)C2)cs1 (stereo not given)	-0.1	x	-1.1	0.73	0.1	25%	4.3
Cn1ncc(=S)[nH]c1=S	-0.9	i	0.2	0.71	x	-5%	11
CCOC(=O)c1cn2nc(-c3ccc(OC)cc3)cc2nc1C1CCN(C(=O)OC(C)(C)C)CC1	x	x	-4.7	0.74	1.8	-3%	-190
Cc1cccc(N=N/C(=C\O)C(=O)c2cccs2)c1	2.9	i	-1.2	0.75	-1.9	11%	6.9
Cc1ccc(C(=O)Nc2ccncc2)cc1S(=O)(=O)N1CCOCC1	-0.8	i	-0.9	0.67	5.0	x	4.8
C=CCn1c(SCC(=O)Nc2cc(C)on2)nnc1-c1ccccc1OC	4.3	i	3.6	0.65	x	x	1.1
COCCn1c(SCC(=O)NCCCN2CCCC2=O)nc2ccccc2c1=O	2.6	i	-3.8	0.71	x	-6%	2.8
COc1ccc(Cl)cc1S(=O)(=O)NC(C)C(=O)NCCN1CCOCC1 (stereo not given)	-0.3	i	0.5	x	x	x	x
Cc1cccc(N2CCN(C(=O)Cn3nc(C)n4cccc4c3=O)CC2C)c1 (stereo not given)	-4.8	i	-2.3	0.7	-2.6	x	6.1
C[C@H]1CN=C(Nc2ccccc2)N1CCc1ccccc1	0.8	i	0.1	x	x	x	3.7
CN(Cc1nc(-c2ccccc2)no1)C(=O)c1ccc2c(c1)OCO2	-4.0	i	0.1	0.63	2.5	-7%	2.8
COC(=O)N/N=C/C1=CCC2CC1C2(C)C (stereo not given)	-1.6	x	2.2	x	0.0	x	x
COc1cccc(CNC(=O)CCNS(=O)(=O)c2ccc(Br)s2)c1	1.5	i	-0.5	0.63	0.8	6%	2.7
CCOc1cc(/C=N/NC(=O)Cc2ccc(C(F)(F)F)cc2[N+](=O)[O-])ccc1O	-3.5	i	1.7	x	1.7	-6%	x
CC(C)Cc1ccc(C(C)C(=O)Nc2ccc(O)cc2)cc1 (stereo not given)	0.1	i	-4.7	0.64	-0.8	u	0.8
O=C(CSc1ccc(-c2ccccn2)nn1)Nc1cccc(F)c1	-0.4	i	1.0	0.62	-2.0	-9%	3.8
CCn1c(CC(=O)Nc2ccccc2F)nnc1SCC(=O)Nc1nncs1	1.0	i	3.0	0.64	2.5	1%	-2.5
Cc1onc(-c2ccccc2)c1C(=O)OCC(=O)NCc1ccc(F)cc1	-1.7	i	-4.2	0.7	0.1	x	3.6

The results go on.
SMILES	MLL AF4-AF9 inh	FGF22 binding	HNF4A DNA FP	E coli growth	RanGTP-Imp inh	Vif A3G	UCH37 inh
Cc1noc(C)c1COc1ccccc1C(=O)NCCc1ccc(F)cc1	-0.4	i	-1.0	0.66	x	-3%	2.5
O=C(NCCc1ccccc1)c1ccnc(/C=N/O)c1	x	x	0.3	x	-4.9	0%	x
Cc1onc(-c2ccccc2)c1C(=O)Nc1nc(-c2ccc(F)c(F)c2)cs1	x	x	-2.4	0.74	2.8	-6%	5.2
O=C(O)C1=C[C@H](c2ccc3c(c2)OCO3)C[C@H](OCCCCO)O1	-2.7&-3.8&-2.6	i	0.1	x	2.3	x	-2.9
O=C(Oc1ccc(Br)cc1C(=S)N1CCOCC1)c1ccccc1	10	x	1.0	0.68	1.8	x	4.2
Cc1cc(C(=O)N/N=C/C=C/c2ccccc2[N+](=O)[O-])c(C)o1	5.3	i	1.0	x	-0.1	-1%	x
CCN1C(=S)SC(=O)C1=C1C=C(C)N(Cc2ccco2)C(C)=C1	x	x	36	0.71	37*	9%	5.8
Cc1cccc(S(=O)(=O)Nc2nc3ccccc3nc2Nc2cccc(C(=O)O)c2)c1	-0.3	i	-1.6	0.71	-2.4	x	7.8

A portion of the library. The share of hits here may be higher or lower than overall.
